Six1-Eya2 blk: Six1/Eya2 interaction inhibition. Q15475+O00167. AlphaScreen GST-Six1/His-Eya2 binding, biochemical; active compounds read low; control for the full effect not named in the record. activity change, % (concentration not given with the values). 360,000 tested, 0.56% active; in the data active = activity change below about -65%; inconclusive = about -30% to -65%; inactive = above about -30%; note: % is set by controls: 0 for no effect and ±100 for the full control effect
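AlphaScreen with GST-Six1 and His-Eya2 (5X mix: 250 nM and 500 nM), glutathione donor and nickel acceptor beads; buffer 50 mM Tris pH 8.0, 300 mM NaCl, 1 mM TCEP; 1 h at 37 C in the dark.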
D2 potentiator: human D2 receptor positive allosteric modulation. P14416. DiscoveRx D2 beta-arrestin cells, luminescence, 90 min; 100% = 57 uM dopamine signal. potentiation, % (test concentration not listed). 360,000 tested, 0.23% active; active = potentiation of 50% or more; inconclusive = 30% to 50%; inactive = 30% or less;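 note: compound concentration not given in the record; tested on top of an EC20 dose of dopamine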
Target sequence (P14416 whole entry, looked up): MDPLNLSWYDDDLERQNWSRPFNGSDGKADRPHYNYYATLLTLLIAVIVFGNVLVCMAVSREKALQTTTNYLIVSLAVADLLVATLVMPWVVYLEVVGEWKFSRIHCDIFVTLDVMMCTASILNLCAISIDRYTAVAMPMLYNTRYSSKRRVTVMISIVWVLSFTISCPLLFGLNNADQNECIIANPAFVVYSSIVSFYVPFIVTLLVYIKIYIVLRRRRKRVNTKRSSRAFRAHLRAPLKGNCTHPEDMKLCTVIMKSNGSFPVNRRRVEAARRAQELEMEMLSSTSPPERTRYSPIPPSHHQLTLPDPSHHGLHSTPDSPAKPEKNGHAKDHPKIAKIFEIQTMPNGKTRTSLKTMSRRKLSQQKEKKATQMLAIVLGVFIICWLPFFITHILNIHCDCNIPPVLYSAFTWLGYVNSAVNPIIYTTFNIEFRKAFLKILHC
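D2 cells co-treated with compound plus 50 nM dopamine (EC20) for 90 min at 37 deg C to detect potentiation. Beta-arrestin recruitment was read as enzyme-fragment luminescence after 1 h at ambient temperature. Full response was set by 57 uM dopamine.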
TRPML1 ag: agonists of human TRPML1 channel; 410,000 tested, 0.12% active; Q9GZU1; activation, % (test concentration not listed); TRPML1-expressing cells, Ca2+ dye fluorescence, FDSS; host cell line not named in the record; reference of the full effect not given here; in the data active = activation above about 50%; inconclusive = about 30% to 50%; inactive = below about 30%; note: 0% is about no effect; the text of the record puts the active cut at 80%
Target sequence (Q9GZU1 whole entry, looked up): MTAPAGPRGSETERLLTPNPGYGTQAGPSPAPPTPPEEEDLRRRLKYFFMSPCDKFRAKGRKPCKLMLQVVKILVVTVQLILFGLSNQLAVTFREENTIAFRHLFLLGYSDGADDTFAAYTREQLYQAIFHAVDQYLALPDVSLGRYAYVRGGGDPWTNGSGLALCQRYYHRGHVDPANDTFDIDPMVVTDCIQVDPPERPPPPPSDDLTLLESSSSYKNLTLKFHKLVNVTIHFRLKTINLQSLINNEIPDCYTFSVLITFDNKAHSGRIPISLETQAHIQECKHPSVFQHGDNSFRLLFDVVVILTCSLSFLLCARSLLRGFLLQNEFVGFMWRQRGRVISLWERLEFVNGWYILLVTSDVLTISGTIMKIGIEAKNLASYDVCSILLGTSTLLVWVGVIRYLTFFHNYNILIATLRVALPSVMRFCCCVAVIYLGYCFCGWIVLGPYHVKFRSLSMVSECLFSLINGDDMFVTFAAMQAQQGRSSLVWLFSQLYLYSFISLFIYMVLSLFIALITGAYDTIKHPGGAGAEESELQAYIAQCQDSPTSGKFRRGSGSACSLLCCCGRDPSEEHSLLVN
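Agonist activity was taken from a 110 s kinetic Ca2+ dye read on the FDSS after pinning compounds onto TRPML1-DL cells. The cells were seeded at 1,500/well with Tet inducer, incubated about 16 h, then dye-loaded at room temperature.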
CtBP-E1A blk: CtBP/E1A binding inhibition; AlphaScreen GST-E1A/His-CtBP binding, 1536-well; active compounds read low; control for the full effect not named in the record; activity change, % (concentration not given with the values); 340,000 tested, 0.49% active; in the data active means activity change below about -65%; inconclusive means about -30% to -65%; inactive means above about -30%; note: % is set by controls: 0 for no effect and ±100 for the full control effect
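Homogeneous bead-based format: GST-tagged E1A captured on glutathione donor beads, His-tagged CtBP on nickel acceptor beads; compounds precede bead addition by 2 h at 37 °C.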
TRPML1 inh: inhibitors of human TRPML1 channel. Q9GZU1. TRPML1-inducible cells, Ca2+ dye fluorescence, FDSS; active compounds read low; inhibition of EC80 agonist-evoked calcium signal. activity change, negative = inhibition, % (no concentration beside the values). 390,000 tested, 0.02% active; in the data active means activity change below about -50%; inconclusive means about -30% to -50%; inactive means above about -30%;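 note: stimulus is agonist 54-4 at its EC80 concentration; % is set by controls: 0 for no effect and ±100 for the full control effect; compound concentration not given in the record; the text of the record puts the active cut at -80%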
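Calcium fluorescence in TRPML1-DL cells induced overnight with Tet: a 110 s read after compound pin addition, then a 110 s antagonist read after challenge with 54-4 at 4 uM final (EC80).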
TRPV1 PAM: potentiators of human vanilloid receptor 1 (TRPV1) | Q8NER1 | TRPV1-expressing cells, Fluo-8 calcium influx, capsaicin EC20 potentiation; host cell line not named in the record; control for the full effect not named in the record | potentiation, % at 8.33 µM | 320,000 tested, 0.02% active | AID 540277; active means potentiation above 80%; inconclusive means 30% to 80%; inactive means below 30%; note: 0% is about no effect
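TRPV1-expressing cells were cultured overnight at 35.5C and loaded with Fluo-8 calcium dye for 40 to 90 min at room temperature. After a 10 s baseline, compound was added and calcium influx was read kinetically for 3 min (ex 480/em 520 nm).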
* hit, by the source's call; ? = inconclusive; nt = not tested or not shown; & = joins results of further samples.

SMILES	Six1-Eya2 blk	D2 potentiator	TRPML1 ag	CtBP-E1A blk	TRPML1 inh	TRPV1 PAM
CCC(C)NC(=O)C1CCN(C(=O)c2ccccc2)CC1 (stereo unspecified)	4	-5	3.9	-10	-8	2
O=C(NCc1nnnn1-c1cccc(F)c1)c1ccc(S(=O)(=O)N2CCOCC2)cc1	7	2	0.1	-12	0	-10
CCOc1ccccc1OCCN1CCCC1	-12	-65	-0.5	nt	?	-36
ClC(Br)=C(n1cnc2ccccc21)n1cnc2ccccc21	6	14	0.7	1	6	-7
Cc1cc(/C=N/n2c(COc3ccccc3C)nc3ccccc3c2=O)c(O)c([N+](=O)[O-])c1	-68*	-4	2.2	-73*	11	22
Cc1ccc(N2C(=O)C3C4C=CC(CNC(=S)Nc5cccc(Cl)c5)(O4)C3C2=O)cc1 (stereo unspecified)	-10	1	0.3	4	-12	-5
COc1ccc(N(C(=O)c2snc(C(N)=O)c2N)C(C(=O)NC2CCCC2)c2ccco2)cc1OC (stereo unspecified)	-6	-5	0.4	-28	-8	0
C=CCn1c(SCC(=O)N(C)C)nc2sc3c(c2c1=O)CCC3	10	-8	0.5	nt	-22	-10
COc1ncnc2c1ncn2CCCNCC(c1ccccc1)c1ccccc1	-13	-13	-0.2	5	9	nt
COc1ccc(C2CC(C(F)(F)F)n3ncc(C(=O)NCC4CCCO4)c3N2)cc1OC (stereo unspecified)	2	1	-0.6	0	-3	1

Limited to TRPV1 PAM, D2 potentiator and Six1-Eya2 blk, for some of the entries so far:
SMILES | TRPV1 PAM | D2 potentiator | Six1-Eya2 blk
COc1ncnc2c1ncn2CCCNCC(c1ccccc1)c1ccccc1 | nt | -13 | -13
ClC(Br)=C(n1cnc2ccccc21)n1cnc2ccccc21 | -7 | 14 | 6

(list continues)
SMILES	Six1-Eya2 blk	D2 potentiator	TRPML1 ag	CtBP-E1A blk	TRPML1 inh	TRPV1 PAM
COc1ccccc1NC(=O)/C=C\C(=O)O	6	-4	1.9	0	4	7
CCOC(=O)N1CCN(C(=O)CC(=O)Nc2ccc3nc4n(c(=O)c3c2)CCCCC4)CC1	0	7	-0.1	-11	-9	12
CC(C(=O)Nc1ccc(C(F)(F)F)cc1)N(C)CC(=O)N1CCN(Cc2ccccc2)CC1 (stereo unspecified)	0	-16	0.7	-3	29	nt
O=C1/C(=C/c2cccc([N+](=O)[O-])c2)CSc2ccc(Cl)cc21	-7	-3	2.2	-9	17	12
Cn1c(CNC(=O)CNC(=O)Cc2ccccc2)cc(=O)n(C)c1=O	1	1	-0.4	4	1	-5
CCCC(C(=O)NC(C)(C)C)N(CC1CCCO1)C(=O)c1snc(C(N)=O)c1N (stereo unspecified)	-8	-11	1.0	5	-11	3
O=C(Cc1ccc2c(c1)OCCO2)N1CCN(S(=O)(=O)c2cccc(Cl)c2Cl)CC1	-4	14	1.1	3	-2	?
O=C(Nc1ccccc1N1CCCCC1)c1ccc(Cl)cc1	14	-7	0.5	14	40	-14
Nc1c(Nc2ccccc2)c2ccccc2oc1=O	-4	-31	-0.2	-10	-13	-1
CCOC(=O)N1CCN(C(=O)CSCC(=O)N=c2sc3cc(OC)ccc3n2C)CC1	1	4	nt	0	nt	nt
CC(=O)Nc1ccc2nc(-c3ccccc3)cn2c1	-9	7	0.5	-3	-2	-4
COc1ccc(C(=O)NC(NC(=O)c2ccc(OC)c(OC)c2)c2ccccc2F)cc1OC	-3	-8	0.9	4	-1	?
Cc1ccc2oc(=O)c3cnn(CC(=O)N4CCCCCC4)c3c2c1	-1	-2	0.8	4	3	-3
CCOc1ccc(N(CC(N)=O)S(=O)(=O)c2ccc(F)cc2)cc1	-3	-8	0.3	-1	9	-11
O=C(COC(=O)c1ccc(O)cc1O)NCCN1C(=O)CSC1=O	0	-3	-0.1	-1	21	-5
CCC(C)(C)NC(=O)CN(Cc1ccccc1Cl)C(=O)CCC(=O)Nc1cc(C)ccn1	1	-3	-0.4	-2	7	5
O=c1[nH]cnc2c1oc1ccccc12	-6	-9	0.3	-4	-2	4
OC(CN1C2=NCCN2c2ccccc21)c1ccc2c(c1)OCO2 (stereo unspecified)	5	-20	-0.4	-4	28	-3
CCc1nc2ccc(C(=O)NCC3CCCCC3)cn2c1N(CCC(C)C)CCN(C)C	-6	-18	1.2	0	nt	nt
CCN1CCN(c2ccc(S(=O)(=O)N3CCCCC3)cc2NC(=O)Cc2ccc(Cl)c(Cl)c2)CC1	-14	-21	3.6	-12	-8	1
C#CCOCCOCCOCCNc1nc(N2CCOCC2)nc(N2CCN(C(=O)[C@H](CCCCN)n3cc([C@@H](N)C(C)CC)nn3)CC2)n1 (stereo partly specified)	7	-28	-0.5	0	-2	5
CCN(Cc1cc2cc(C)ccc2[nH]c1=O)C(=O)c1cccc(OC)c1	5	-6	-0.5	-1	7	3
CCOC(=O)c1c(-c2cccs2)csc1N	-4	-2	3.0	-8	4	10
Cc1cc(NC(=O)CSc2nnc(C)o2)no1	?	-11	-0.1	-86*	-6	5
Cc1cc(C(=O)N/N=C/c2cccn2C)n[nH]1	-10	-5	0.0	-3	6	-15
CC1CCCC(C)N1C(=O)COC(=O)c1cc(S(=O)(=O)N2CCOCC2)ccc1Cl (stereo unspecified)	0	-35	-0.2	-21	0	-15
CN(C)c1ccc(-c2cc3ccccc3c(=O)o2)cc1	11	0	1.4	12	37	nt
OCCC1CN(Cc2ccc3cccc(F)c3n2)CCN1Cc1ccccc1 (stereo unspecified)	3	-1	0.2	7	-8	?
COc1cc(C2=NOC(C(=O)N3CCCCCC3)C2)cc(OC)c1OC (stereo unspecified)	-1	4	0.3	-9	-7	-3
COc1ccc(/C(N)=N/OC(=O)CSc2ccc(C)cc2)cc1	66	10	4.2	70	12	10

As entered above:
CN(C)c1ccc(-c2cc3ccccc3c(=O)o2)cc1 | TRPML1 ag = 1.4
COc1cc(C2=NOC(C(=O)N3CCCCCC3)C2)cc(OC)c1OC (stereo unspecified) | TRPML1 ag = 0.3
CC1CCCC(C)N1C(=O)COC(=O)c1cc(S(=O)(=O)N2CCOCC2)ccc1Cl (stereo unspecified) | TRPV1 PAM = -15
CCOC(=O)c1c(-c2cccs2)csc1N | TRPML1 inh = 4
Cc1cc(NC(=O)CSc2nnc(C)o2)no1 | CtBP-E1A blk = -86*

Carrying on.
SMILES	Six1-Eya2 blk	D2 potentiator	TRPML1 ag	CtBP-E1A blk	TRPML1 inh	TRPV1 PAM
Cc1cccc(NC(=O)CN(C)S(=O)(=O)c2ccc3c(c2)n(C)c(=O)c(=O)n3C)c1C	1	-1	-0.9	4	5	-5
CCN(C(=O)CSc1ncnc2c1cnn2-c1ccccc1)C1CCS(=O)(=O)C1 (stereo unspecified)	5	12	0.8	-17	37	-11
Nc1ccc2nc(SCC(=O)c3ccccc3)sc2c1	-25	-28	-0.8	-1	-5	4
COc1ccc2c(c1)OC[C@H]1[C@H]2N2C(=O)c3cc(C)ccc3NC(=O)[C@@]2(C)[C@H]1c1ccccc1	-6	-48	0.7	-2	52	nt
CCc1ccccc1N1CC(C(=O)Nc2nccs2)CC1=O (stereo unspecified)	-4	-4	-0.2	5	30	17
CC(C)(C)C(=O)/C=C(N)/C=C/c1ccccc1	-9	3	0.1	-5	16	-6
O=C(c1ccccc1)c1ccc(O)c(O)c1O	-11	0	nt	8	nt	nt
COc1ccccc1NC(=O)COC(=O)Cc1c[nH]c2ccccc12	1	-8	-0.8	3	5	7
CN1CCN(C(=O)c2cc3ccccc3[nH]2)CC1	9	-45	0.0	nt	15	-3
COc1ccccc1CN1[C@@H](CC(=O)O)c2cc(F)ccc2S1(=O)=O	3	-5	0.1	0	7	nt

An excerpt from above in order of the CtBP-E1A blk value, ascending.
mol | Six1-Eya2 blk | D2 potentiator | CtBP-E1A blk | TRPML1 inh
COc1ccc(N(C(=O)c2snc(C(N)=O)c2N)C(C(=O)NC2CCCC2)c2ccco2)cc1OC (stereo unspecified) | -6 | -5 | -28 | -8
CCOC(=O)c1c(-c2cccs2)csc1N | -4 | -2 | -8 | 4
COc1ccccc1CN1[C@@H](CC(=O)O)c2cc(F)ccc2S1(=O)=O | 3 | -5 | 0 | 7
Cc1cccc(NC(=O)CN(C)S(=O)(=O)c2ccc3c(c2)n(C)c(=O)c(=O)n3C)c1C | 1 | -1 | 4 | 5
COc1ccc(/C(N)=N/OC(=O)CSc2ccc(C)cc2)cc1 | 66 | 10 | 70 | 12

(listing goes on)
SMILES	Six1-Eya2 blk	D2 potentiator	TRPML1 ag	CtBP-E1A blk	TRPML1 inh	TRPV1 PAM
CC1=C(C(=O)Nc2ccccc2)C(c2ccccn2)n2nc(CCCO)nc2N1 (stereo unspecified)	1	-5	-0.3	3	19	19
Cc1ccc(S(=O)(=O)N(C)CC(=O)Nc2nc3ccccc3s2)cc1	-6	11	4.1	-4	8	-10
Clc1ccccc1N=C1NN=C(c2cccs2)CS1	-20	-6	1.2	-14	2	8
CC(C)C[C@H]1CN([C@@H](Cc2ccc(O)cc2)CN2CCC[C@@H]2CN2C(=O)C(=O)NC[C@@H]2Cc2ccccc2)C(=O)C(=O)N1CC1CCCCC1	-8	-8	-0.6	-7	9	nt
COCCNC(=O)c1ccc(CS(=O)(=O)c2ccccc2)o1	21	-32	-0.5	6	-5	9
CC(C)(C)NC(=O)C(=O)NN=C1CCCCCCCCCCC1	1	-5	0.7	8	0	-24
COc1ccc(Cc2nc(=S)[nH][nH]2)cc1Br	8	-42	0.0	-2	9	10
Cc1c(C)c2ccc(OC3CCCCC3=O)cc2oc1=O (stereo unspecified)	5	6	-0.8	5	-2	11
C=CCn1c(SC(C)C#N)nc2sc(CC)cc2c1=O (stereo unspecified)	3	-1	-0.6	6	42	-15
COCCNC(=O)CCC(=O)NNc1nc2ccccc2c2nc(-c3ccccc3)nn12	-67*	-5	-0.5&-0.3	-17	2&-11	-6

Pulled one by one from above:
SMILES	Six1-Eya2 blk	D2 potentiator	TRPML1 ag	CtBP-E1A blk	TRPML1 inh	TRPV1 PAM
CC(C)C[C@H]1CN([C@@H](Cc2ccc(O)cc2)CN2CCC[C@@H]2CN2C(=O)C(=O)NC[C@@H]2Cc2ccccc2)C(=O)C(=O)N1CC1CCCCC1	-8	-8	-0.6	-7	9	nt
CC(C)(C)NC(=O)C(=O)NN=C1CCCCCCCCCCC1	1	-5	0.7	8	0	-24
Clc1ccccc1N=C1NN=C(c2cccs2)CS1	-20	-6	1.2	-14	2	8

(cont.)
SMILES	Six1-Eya2 blk	D2 potentiator	TRPML1 ag	CtBP-E1A blk	TRPML1 inh	TRPV1 PAM
COc1ccc(-n2nnnc2/C(=C/N(C)C)C(=O)c2ccccc2)cc1	-14	-3	-0.1	2	-6	-10
Cc1cc(NC(=O)c2sc(Nc3ccc(F)cc3)nc2N)no1	-13	-11	0.7	-11	-2	7
COc1ccccc1Nc1nnc(SCC(=O)c2cc(C)n(CC3CCCO3)c2C)s1 (stereo unspecified)	-11	-22	1.1	-23	-1	10
C[C@H](CO)N1C[C@H](C)[C@@H](CN(C)S(=O)(=O)c2ccccc2)Oc2ccc(NC(=O)Nc3ccccc3)cc2C1=O	-3	3	-0.2	-7	-6	nt
COc1ccc(C(=O)NNC(=O)c2ccccc2[N+](=O)[O-])cc1	3	-3	-0.2	-1	17	2
CCO/C=C1\C(=O)N(CC)c2ccccc21	0	-5	4.7	1	5	-45
O=C(NC1CCCCCCC1)c1cccc(Cl)c1	-2	-15	1.0	11	10	-4
Nc1cccc(-c2cccc3nncn23)c1	2	0	-0.6	3	nt	nt
Cc1cc(NC(=O)c2ccno2)no1	-1	-7	-0.1	-2	17	-20

Not a hit list. About 0.95% of those tested had a hit in this group.
